MT1-MMP act inh: MT1-MMP (human) activation inhibition. P50281. HT1080 RFP-PRO-GFP cells, GFP/RFP ratio fluorescence, overnight; percent of plate control window, DMSO zero. GFP/RFP ratio change, % at 20 µM. hit rate 0.061% among 360,000. AID 651647;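 active = GFP/RFP ratio change of at least 30% with cell ATP level not reduced by more than half and red fluorescence within 50% of control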; also: strong numbers were not always called active
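Test system: HT1080 cells expressing an RFP-PRO-GFP fluorescent reporter construct / Compound dosing: single-point 20 µM compound, 1% DMSO / Schedule: cells overnight before dosing, compound overnight, 37 °C, 5% CO2 / Evaluation: GFP/RFP fluorescence ratio / Control set: DMSO and RFP-L50D-GFP cell wells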
CSC inhib: blocks cancer stem cells. cancer stem cell-like cells viability, luminescence. inhibition, % at 7.5 µM. AID 2717. hit rate 1.1% among 300,000;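 active = mean at 75% or more and at least half the replicates too; tested in HMLE shEcad cells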;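 also: 0% = median of negative and 100% = median of positive control wells; the first replicate is given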
PABP polyA inh: PABP-poly(A) binding inhibition; P11940; PABP-poly(A) RNA binding, fluorescence polarization; inhibition, % at 35 µM; hit rate 1% among 290,000;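 active = 50% or more with normal probe brightness, or confirmed in later tests; about a fifth of its hits are not listed in these tables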;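 also: calls also rest on retests at 20 µM and on dose response follow-up; controls were probe without protein and protein plus probe with vehicle; some compounds called inactive have numbers as strong as hits; many hits fall short of the cut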
Target sequence (P11940 whole entry, looked up): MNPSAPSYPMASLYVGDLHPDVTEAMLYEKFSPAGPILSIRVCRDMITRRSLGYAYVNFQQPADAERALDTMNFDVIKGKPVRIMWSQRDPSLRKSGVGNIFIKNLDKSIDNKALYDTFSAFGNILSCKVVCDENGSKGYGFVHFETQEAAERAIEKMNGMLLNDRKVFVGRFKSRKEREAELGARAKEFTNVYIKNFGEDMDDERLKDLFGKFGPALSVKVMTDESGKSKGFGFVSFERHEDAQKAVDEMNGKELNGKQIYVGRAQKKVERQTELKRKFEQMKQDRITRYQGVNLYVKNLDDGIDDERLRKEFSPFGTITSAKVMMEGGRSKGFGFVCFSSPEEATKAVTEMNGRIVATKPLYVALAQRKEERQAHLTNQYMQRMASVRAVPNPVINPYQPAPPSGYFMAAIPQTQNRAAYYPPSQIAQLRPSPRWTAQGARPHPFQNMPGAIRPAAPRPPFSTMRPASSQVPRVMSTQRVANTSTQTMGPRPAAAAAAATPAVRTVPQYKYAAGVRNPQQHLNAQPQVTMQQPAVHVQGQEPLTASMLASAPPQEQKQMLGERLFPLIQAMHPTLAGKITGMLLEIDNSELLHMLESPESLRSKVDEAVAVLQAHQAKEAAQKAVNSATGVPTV
Env fusion inh: HIV envelope-mediated fusion inhibition | HeLa-JRFL Env/CEM21 cell fusion, luciferase | inhibition, % at 12.3 µM | AID 651610 | hit rate 1.1% among 360,000;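 active = mean replicate inhibition score of at least 50 and every replicate individually at or above 50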;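 also: 0% = plate neutral controls and 100% = maraviroc near 300 nM; one replicate is shown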
eIF4H FP inh: inhibitors of RNA binding by human eIF4H. Q15056. eIF4H fluorescence polarization binding assay. inhibition, % at 35 µM. hit rate 0.94% among 290,000;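 active = 50% or more with normal probe brightness, or confirmed in later tests; about a fifth of its hits are not listed in these tables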;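 also: calls also rest on retests at 20 µM and on dose response follow-up; 0% = protein and probe with vehicle and 100% = probe without protein; strong numbers were not always called active; many hits fall short of the cut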
Rce1 inh: inhibitors of yeast Ras-converting enzyme | Q03530 | yeast membranes, quenched prenylated peptide cleavage fluorescence | calls only | hit rate 0.27% among 290,000 | AID 2563;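 active = fall in fluorescence gain of 50% or more versus controls, with final raw signal at or below 3038400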;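 also: plate controls were neutral control wells for no effect and wells lacking membranes for full effect; tested at 10 µM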
Target sequence (Q03530 whole entry, looked up): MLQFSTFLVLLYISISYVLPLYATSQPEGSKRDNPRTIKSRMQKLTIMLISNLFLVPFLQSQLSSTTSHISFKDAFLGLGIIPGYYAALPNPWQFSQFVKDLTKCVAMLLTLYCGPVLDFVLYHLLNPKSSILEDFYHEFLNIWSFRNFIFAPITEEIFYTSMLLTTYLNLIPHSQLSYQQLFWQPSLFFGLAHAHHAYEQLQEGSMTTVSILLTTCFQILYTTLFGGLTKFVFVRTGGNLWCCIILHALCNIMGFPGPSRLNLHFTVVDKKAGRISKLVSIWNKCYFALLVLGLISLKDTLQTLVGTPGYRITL
UUG fidelity: alters start codon recognition fidelity in yeast; S. cerevisiae UUG-firefly luciferase reporter, luminescence/redox ratio; activity score, % at 18.7 µM; hit rate 0.13% among 350,000;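 active = replicate mean at a twofold rise or more, about +100% in these data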;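 also: firefly luciferase made from a UUG start codon reports start codon fidelity; reporter light over untreated wells divided by growth signal over untreated wells; some hits fall short of that in this replicate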
eIF4H FP inh retest: also measured in eIF4H FP inh; calls as there; inhibition, %; compound at 20 µM; confirmation average;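 mean of two retest wells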
PABP polyA inh retest: recorded beside PABP polyA inh, whose call it bears; inhibition, %; compound at 20 µM; confirmation repeats;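 mean of two retest wells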
MT1-MMP act inh RFP: further read-out of MT1-MMP act inh, marked with its call; RFP signal change, %; measured here: RFP expression control read;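 0 = vehicle wells; hits needed this value within 50% of zero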
* hit, by the source's call; i = inactive; nt = no result given; & = joins results of further samples.

SMILES | MT1-MMP act inh | MT1-MMP act inh RFP | CSC inhib | PABP polyA inh | Env fusion inh | eIF4H FP inh | Rce1 inh | UUG fidelity | others
N/C(=N\OC(=O)Cc1ccc([N+](=O)[O-])cc1)c1ccc([N+](=O)[O-])cc1 | 3 | 3 | 0 | -3 | 3 | -7 | i | -13
COc1ccc(CCNC(=O)COc2ccc(-c3ccccc3)cc2)cc1OC | -1 | 1 | -9 | -7 | 5 | 3 | i | nt
C=CCNC(=O)CN(c1ccc(OC)cc1OC)S(C)(=O)=O | 0 | 4 | -22 | -7 | -36 | 0 | i | -21
COc1cc2cc(C(=O)N3CCN(Cc4ccc5c(c4)OCO5)CC3)c(=O)oc2cc1OC | -1 | 3 | -22 | -6 | 17 | -3 | i | nt
CC(C)NC(=O)CSc1nc2ccccc2n1CC(=O)N1CCc2ccccc21 | 6 | 3 | -16 | -2 | nt | -7 | i | nt
NNC(=O)COc1ccc(-c2nccc(-c3ccc(F)cc3)n2)cc1 | 5 | -8 | 19 | -8 | 23 | -4 | i | -12
CC1CCN(c2oc(-c3ccccc3Cl)nc2C#N)CC1 | -5 | -10 | nt | 4 | nt | -2 | i | -30
COCCn1c(N)c(C(=O)NS(=O)(=O)c2ccc(C)cc2)c(=O)[nH]c1=O | -1 | 2 | 9 | -9 | 1 | -1 | i | nt
COc1ccc(S(=O)(=O)N(CC(=O)NC2CC3CCC2C3)c2ccccc2OC)cc1 (stereo unspecified) | -3 | -3 | nt | 9 | 3 | -5 | i | nt
Cc1cc(C(F)(F)F)c2c(C)nn(-c3ccccc3)c2n1 | -2 | 0 | 2 | nt | -3 | nt | nt | -20
COc1ccc(N=N/C(=C\O)C(=O)c2ccco2)cc1 | 2 | -3 | 11 | -11 | -1 | -9 | i | nt
Cn1c(Sc2ccc(C(F)(F)F)cc2[N+](=O)[O-])nnc1-c1ccccc1 | 10 | -4 | -22 | 6 | -49 | -19 | i | -13
O=C1NN(c2ccccc2)C(=O)/C1=C/c1ccc(-c2ccc(C(=O)O)cc2)o1 | -13 | 1 | -8 | 70* | -100 | 68* | i | -17
COc1ccc(CN(C)C(=O)c2ccccc2Sc2ccccc2C#N)c(OC)c1 | -5 | -1 | 3 | -5 | 7 | -7 | i | -1
N#Cc1ccccc1NC1=CC(=O)CCC1 | 3 | 5 | -3 | 10 | 4 | 2 | i | -9
Nc1ccnc(Oc2ccc(F)cc2)c1 | 5 | 5 | -22 | -4 | -19 | -2 | i | nt
COc1ccc(N2C(=O)C3C4C=CC(c5ccccc5)(C3C2=O)C2C(=O)N(c3ccc(OC)cc3)C(=O)C42)cc1 (stereo unspecified) | 1 | 4 | -10 | -2 | 7 | -12 | i | nt
CCOC(=O)CSc1nc2c([nH]c3ccccc32)c(=O)n1C | 3 | 7 | -13 | -1 | -200 | -3 | i | -1
COc1ccc(-n2nc(C(=O)NCC(=O)NCc3ccccc3OC)c3ccccc3c2=O)cc1 | 0 | -1 | 2 | 2 | 8 | -6 | i | -18
O=C(Nc1ccc(Nc2ccccc2)cc1)C(Cl)Cl | -2 | -4 | 6 | 11 | -9 | 4 | i | nt

Two successive compounds already listed:
SMILES | MT1-MMP act inh | MT1-MMP act inh RFP | CSC inhib | PABP polyA inh | Env fusion inh | eIF4H FP inh | Rce1 inh | UUG fidelity | others
N/C(=N\OC(=O)Cc1ccc([N+](=O)[O-])cc1)c1ccc([N+](=O)[O-])cc1 | 3 | 3 | 0 | -3 | 3 | -7 | i | -13
COc1ccc(CCNC(=O)COc2ccc(-c3ccccc3)cc2)cc1OC | -1 | 1 | -9 | -7 | 5 | 3 | i | nt

The results go on.
SMILES | MT1-MMP act inh | MT1-MMP act inh RFP | CSC inhib | PABP polyA inh | Env fusion inh | eIF4H FP inh | Rce1 inh | UUG fidelity | others
COc1ccc(C(=O)c2ccc(OC)cc2O)c(O)c1 | -3 | 0 | 40 | -4 | -272 | -2 | nt | -7
CCC(C)Sc1cccc(-c2nc3ccc(C)cn3c2NCc2ccccc2)c1 (stereo unspecified) | 2&5 | -12&-4 | 125* | nt | 12&7 | nt | i | -26
CCC(=O)Nc1nc2ccc(S(C)(=O)=O)cc2s1 | -13 | -8 | -2 | -4 | -44 | 2 | i | -18
Cc1ccc(CN2C(=O)C(CC(C)C)Nc3ncnc(N4CCCCC4)c32)cc1 (stereo unspecified) | -2 | -4 | nt | nt | 15 | nt | nt | -14
CN(C)c1ccc(C2C3C(=O)N(c4ccc(C(=O)O)cc4)C(=O)C3ON2c2ccccc2)cc1 (stereo unspecified) | 1 | 3 | nt | 1 | -5 | 5 | i | -14
CN(C(=O)c1cccc(NC(=O)Cc2cccc(NC(=O)C3CCN(C(=O)C4CC4)CC3)c2)c1)C1CCC1 | 4 | 2 | nt | nt | -3 | nt | nt | 13
O=c1c2c(n3cnnc3n1-c1ccccc1)-c1ccccc1CC21CCCC1 | 2 | 2 | -8 | -1 | 9 | -6 | i | nt
c1ccc(NCn2cncn2)nc1 | -3 | 1 | -9 | -4 | nt | -12 | i | -21
c1ccc2c(c1)CCCN2Cc1nnc2n1CCCCC2 | -34 | 10 | 2 | 77* | nt | 61* | i | nt
CCC(=O)Nc1ccc2c(c1)C(=O)N(C1CCCCC1)C2=O | 9 | 2 | nt | -3 | nt | 5 | i | 11
CC(C)OC(=O)C1C(=O)CC(C)(O)C(C(=O)OC(C)C)C1c1ccccc1 (stereo unspecified) | 0 | 0 | -17 | -4 | 14 | 5 | i | nt
CC1=NN(C(=O)Cc2ccc(C)cc2)C(O)(c2cccnc2)C1 (stereo unspecified) | 1 | 3 | -9 | -9 | 16 | -12 | i | -18
CCCCC(=O)NS(=O)(=O)c1ccc(N=NN(CC)CC)cc1 | -5 | -4 | -14 | -3 | 3 | -6 | i | -9
COc1ccc(OCCOC(=O)c2cc(S(=O)(=O)N3CCOCC3)c(Cl)cc2Cl)cc1 | 3 | -1 | nt | nt | -3 | nt | i | -14
CCc1cc(=O)oc2cc(C)c(CN3CCCCC3)c(O)c12 | -3 | 1 | 25 | 79* | -20 | 70* | i | 2
COc1ccc(-c2ccc([C@H]3[C@H]4C=CC[C@@H](C)[C@@H]4C(=O)N3Cc3ccccc3)c(F)c2)cc1C | -6 | -12 | 36 | -2 | 24 | 2 | i | -10
CCOc1ccc2nc(SCC(=O)NC3CCS(=O)(=O)C3)[nH]c2c1 (stereo unspecified) | 1 | 1 | nt | -9 | nt | 0 | i | -7
COc1ccccc1NC(=O)CN1CC(=O)Nc2ccccc21 | 0 | 4 | -7 | 82* | 4 | -9 | i | -6 | eIF4H FP inh retest=4;PABP polyA inh retest=102*
O=C(/C=C/c1cccc(F)c1)NC1CCN(Cc2ccccc2)CC1 | 4 | 3 | -11 | 2 | 2 | 3 | i | -10
Cn1c(N)c(C(=O)c2ccc(Cl)c(S(=O)(=O)N3CCCCCC3)c2)c(=O)n(C)c1=O | 5 | -4 | -9 | nt | nt | nt | nt | 2

Reprinted from the part before: 4 compounds, then new ones.
SMILES | MT1-MMP act inh | MT1-MMP act inh RFP | CSC inhib | PABP polyA inh | Env fusion inh | eIF4H FP inh | Rce1 inh | UUG fidelity | others
CCOc1ccc2nc(SCC(=O)NC3CCS(=O)(=O)C3)[nH]c2c1 (stereo unspecified) | 1 | 1 | nt | -9 | nt | 0 | i | -7
COc1ccccc1NC(=O)CN1CC(=O)Nc2ccccc21 | 0 | 4 | -7 | 82* | 4 | -9 | i | -6 | eIF4H FP inh retest=4;PABP polyA inh retest=102*
O=C(/C=C/c1cccc(F)c1)NC1CCN(Cc2ccccc2)CC1 | 4 | 3 | -11 | 2 | 2 | 3 | i | -10
Cn1c(N)c(C(=O)c2ccc(Cl)c(S(=O)(=O)N3CCCCCC3)c2)c(=O)n(C)c1=O | 5 | -4 | -9 | nt | nt | nt | nt | 2
Cc1cc(C)n(CC(=O)NNC(=O)c2ccc(S(C)(=O)=O)cc2)n1 | 1 | 6 | -6 | nt | 3 | nt | nt | 8
Cc1cccc(C)c1NC(=O)CSc1nnc(Cn2nnc(-c3ccccc3)n2)n1-c1ccccc1 | -5 | 2 | -2 | -1 | -265 | 11 | i | 2
Cn1c(Cc2ccccc2)nnc1SCC(=O)Nc1ccc2c(c1)OCCO2 | 2 | 3 | -3 | -8 | nt | -9 | i | -4
CCOC(CCc1c(C)nc(NC(C)=O)[nH]c1=O)OCC | -3 | 3 | 3 | -4 | 10 | -6 | i | nt
COc1ccc(CC(=O)NC(C)c2nnc(SCCOc3ccc(OC)cc3)n2C)cc1 (stereo unspecified) | -1 | -3 | -1 | -3 | -72 | -9 | nt | 2
O=C(c1cncc(Br)c1)N1CCCc2ccccc21 | nt | nt | -12 | 4 | nt | -3 | i | -7
CCCC(=O)Nc1nc(C)c(-c2csc(Nc3ccc(Cl)cc3)n2)s1 | 1 | -3 | 64 | 10 | -11 | 17 | i | -22
COc1ccccc1N1CCN(C(=O)Cc2cccs2)CC1 | -1 | 2 | 3 | 11 | -39 | 10 | i | -13
CCN(CC)S(=O)(=O)c1cc(NS(=O)(=O)c2c(Cl)cccc2Cl)ccc1C | -3 | -3 | 31 | -2 | nt | -3 | i | nt
Cc1c2cnn(CC(=O)NCCCN3CC(C)CC(C)C3)c(=O)c2c(C)n1Cc1ccccc1Cl (stereo unspecified) | 3 | 0 | -8 | 0 | 15 | -18 | i | -3
CCC(C)N1CNc2c(c(=O)[nH]c(=S)n2-c2cccc(C)c2)C1 (stereo unspecified) | -3 | 0 | -3 | 2 | 12 | 6 | i | nt
CCCC(=O)Nc1c2c(nn1-c1ccc([N+](=O)[O-])cc1)CS(=O)(=O)C2 | 1 | 0 | 1 | -4 | -6 | -13 | i | 0
CC(=O)c1ccc(NC(=O)N2CCCC(C(=O)c3ccc4c(c3)OCO4)C2)cc1 (stereo unspecified) | 11 | -1 | 5 | -1 | 2 | -5 | i | 4

4 entries picked at random from the list so far:
SMILES | MT1-MMP act inh | MT1-MMP act inh RFP | CSC inhib | PABP polyA inh | Env fusion inh | eIF4H FP inh | Rce1 inh | UUG fidelity | others
CCC(C)N1CNc2c(c(=O)[nH]c(=S)n2-c2cccc(C)c2)C1 (stereo unspecified) | -3 | 0 | -3 | 2 | 12 | 6 | i | nt
N/C(=N\OC(=O)Cc1ccc([N+](=O)[O-])cc1)c1ccc([N+](=O)[O-])cc1 | 3 | 3 | 0 | -3 | 3 | -7 | i | -13
O=C(/C=C/c1cccc(F)c1)NC1CCN(Cc2ccccc2)CC1 | 4 | 3 | -11 | 2 | 2 | 3 | i | -10
CCOC(CCc1c(C)nc(NC(C)=O)[nH]c1=O)OCC | -3 | 3 | 3 | -4 | 10 | -6 | i | nt

Screens from PubChem.
